TRPML1 ag: human mucolipin-1 channel agonism; Q9GZU1; TRPML1-expressing cells, Ca2+ dye fluorescence, FDSS; host cell line not named in the record; reference of the full effect not given here; activation, % (no concentration beside the values); hit rate 0.12% among 410,000; AID 624414; in the data active = activation above about 50%; inconclusive = about 30% to 50%; inactive = below about 30%; further: 0% is about no effect; the text of the record puts the active cut at 80%
Target sequence (Q9GZU1 whole entry, looked up): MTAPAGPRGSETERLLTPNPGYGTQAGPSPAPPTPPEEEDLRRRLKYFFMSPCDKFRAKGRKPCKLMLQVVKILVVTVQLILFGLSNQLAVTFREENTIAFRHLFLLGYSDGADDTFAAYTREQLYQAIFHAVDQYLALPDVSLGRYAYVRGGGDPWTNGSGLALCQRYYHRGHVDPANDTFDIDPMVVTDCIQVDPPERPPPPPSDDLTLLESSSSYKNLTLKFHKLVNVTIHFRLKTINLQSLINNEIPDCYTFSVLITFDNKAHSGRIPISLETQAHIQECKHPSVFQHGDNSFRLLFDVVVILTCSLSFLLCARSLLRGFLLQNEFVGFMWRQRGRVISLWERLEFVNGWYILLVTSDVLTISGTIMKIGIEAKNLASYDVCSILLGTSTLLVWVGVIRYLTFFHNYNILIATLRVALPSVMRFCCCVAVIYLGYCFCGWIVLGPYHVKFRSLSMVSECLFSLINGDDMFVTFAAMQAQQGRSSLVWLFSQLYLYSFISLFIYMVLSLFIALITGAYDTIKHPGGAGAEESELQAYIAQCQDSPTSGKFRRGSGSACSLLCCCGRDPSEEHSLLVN
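TRPML1-DL cells, Tet-induced overnight (~16 h, 37 degrees C), loaded 45-90 min at room temperature with Ca8 no-wash calcium dye plus quencher. FDSS fluorescence: 10 s baseline, compound pin-transfer, 110 s agonist read, then EC80 54-4 (4uM final) and 110 s antagonist read.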
ClpP mod: qHTS Assay for Activators of ClpP | ATP-dependent Clp protease proteolytic subunit (Bacillus subtilis (strain 168)), P80244 | purified B. subtilis ClpP, FRET peptide cleavage, 20 min | Potency, µM (titrated, usually from 57.5 µM), for inactives: at the highest dose activity change, negative = active | hit rate 1.9% among 340,000; active = well fitted falling curve with a large enough effect; inconclusive = small, poorly fitted or top-dose-only effect; inactive = no such curve, though single readings can be large or run the other way; further: potency means the concentration at half of the fitted maximal effect; the source files actives as falling curves though it sought activators and does not explain the sign; nearly all actives have a fitted effect of over 65% in size; many hits overshoot -100%
Target sequence (P80244 whole entry, looked up): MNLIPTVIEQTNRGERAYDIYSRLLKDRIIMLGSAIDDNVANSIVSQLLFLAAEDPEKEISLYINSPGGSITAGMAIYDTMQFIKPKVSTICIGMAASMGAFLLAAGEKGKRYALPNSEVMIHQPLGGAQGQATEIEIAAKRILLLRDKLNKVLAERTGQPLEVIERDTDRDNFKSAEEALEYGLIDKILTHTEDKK
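Buffer: 100 mM Tris/HCl pH8, 100 mM KCl, 0.05% low protease BSA, 2.5% glycerol, 0.01% Tween-20. ClpP 10 microg/mL final; 20 min RT; delta FRET normalized to ADEP and DMSO controls.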
Active calls of the source: *; ? = inconclusive. These rows are one share of the data; the hit share may differ from the screen's.

SMILES | TRPML1 ag | ClpP mod
CCOC(=O)C1CCCN(C(=O)c2cc(C#N)cs2)CC1 (stereo not given) | -0.3 | 1.8%
COc1ccc(C(C)=O)cc1CN1C(=O)C(C)ON=C1c1cccc(C(F)(F)F)c1 (stereo not given) | -1.4 | 0.3%
O=C1OCCOC2CCCc3oc(C4=CCCCC4)c1c32 (stereo not given) | -0.8 | -8.8%
CC(C)Oc1cc(F)ccc1-c1cc(C(=O)Nc2cccc(Cl)c2)[nH]n1 | 0.0 | -24%
Cc1cc(F)ccc1C(O)c1ncc(-c2ccccc2Cl)[nH]1 (stereo not given) | -1.3 | -0.2%
COc1cc(Nc2ncc3c(n2)CCN(C(=O)Nc2ccc(C(C)C)cc2)C3)cc(OC)c1OC | -0.9 | -3.5%
Cc1noc(C)c1-c1ccc(C(=O)NCC(C)C)c2occc12 | -0.6 | -20%
CC(C)Oc1cccc(NC(=O)C2(C)CCCN2C(=O)C(C)C)c1 (stereo not given) | -0.3 | 0.4%
CCOC(=O)C1(C)CCCCCN1C(=O)c1ccc(OC)cc1 (stereo not given) | -0.7 | -1.0%
Cc1cncc(NCc2ccc3c(c2)OCO3)n1 | -0.9 | -18%
O=C(Nc1ccc(F)c(Cl)c1)c1cc(C2CCCN(S(=O)(=O)c3cccs3)C2)on1 (stereo not given) | 0.3 | -14%
Cc1ccc2nc(C(C)(C)C)c(Cc3cccc(Cl)c3)n2c1 | -0.4 | 5.0%
COc1cc(CNC(=O)Nc2nc(C(N)Cc3ccc(C(F)(F)F)cc3)cs2)cc(OC)c1OC (stereo not given) | 1.4 | -3.2%
Cc1c(C(=O)NCCC#N)sc(=O)n1Cc1ccccc1F | -0.9 | 1.5%
CC(C)C(N)c1csc(Nc2ccc(C(=O)c3ccccc3)cc2)n1 (stereo not given) | 1.6 | -6.3%
COc1ccc(C(C)=O)cc1Cn1c(C)c(C(=O)NCCC#N)sc1=O | -0.6 | -1.5%
CCn1nccc1NC(=O)c1csc([C@@H]2C[C@H](O)[C@@H](CO)O2)n1 | 0.3 | -2.7%
O=C1NC[C@@H](CCCCN2C[C@H](Cc3ccccc3)N(Cc3ccccc3)C(=O)C2=O)N(CC2CCCCC2)C1=O | -0.4 | -1.6%
COc1ccc(S(=O)(=O)N2C[C@H]3CON(C)[C@H]3C[C@H]2c2ccc(-c3cccc(F)c3)cc2)cc1 | -0.1 | -1.4%
CC(C)C[C@@H](CN1CCC[C@H]1CN1C(=O)C(=O)NC[C@@H]1Cc1ccccc1)N1C[C@H](Cc2ccc(O)cc2)N(CCc2ccccc2)C(=O)C1=O | -0.6 | -0.3%

No new results follow: 14 of the compounds above.
SMILES | TRPML1 ag | ClpP mod
Cc1noc(C)c1-c1ccc(C(=O)NCC(C)C)c2occc12 | -0.6 | -20%
CC(C)Oc1cccc(NC(=O)C2(C)CCCN2C(=O)C(C)C)c1 (stereo not given) | -0.3 | 0.4%
CCOC(=O)C1(C)CCCCCN1C(=O)c1ccc(OC)cc1 (stereo not given) | -0.7 | -1.0%
Cc1cncc(NCc2ccc3c(c2)OCO3)n1 | -0.9 | -18%
O=C(Nc1ccc(F)c(Cl)c1)c1cc(C2CCCN(S(=O)(=O)c3cccs3)C2)on1 (stereo not given) | 0.3 | -14%
Cc1ccc2nc(C(C)(C)C)c(Cc3cccc(Cl)c3)n2c1 | -0.4 | 5.0%
COc1cc(CNC(=O)Nc2nc(C(N)Cc3ccc(C(F)(F)F)cc3)cs2)cc(OC)c1OC (stereo not given) | 1.4 | -3.2%
Cc1c(C(=O)NCCC#N)sc(=O)n1Cc1ccccc1F | -0.9 | 1.5%
CC(C)C(N)c1csc(Nc2ccc(C(=O)c3ccccc3)cc2)n1 (stereo not given) | 1.6 | -6.3%
COc1ccc(C(C)=O)cc1Cn1c(C)c(C(=O)NCCC#N)sc1=O | -0.6 | -1.5%
CCn1nccc1NC(=O)c1csc([C@@H]2C[C@H](O)[C@@H](CO)O2)n1 | 0.3 | -2.7%
O=C1NC[C@@H](CCCCN2C[C@H](Cc3ccccc3)N(Cc3ccccc3)C(=O)C2=O)N(CC2CCCCC2)C1=O | -0.4 | -1.6%
COc1ccc(S(=O)(=O)N2C[C@H]3CON(C)[C@H]3C[C@H]2c2ccc(-c3cccc(F)c3)cc2)cc1 | -0.1 | -1.4%
CC(C)C[C@@H](CN1CCC[C@H]1CN1C(=O)C(=O)NC[C@@H]1Cc1ccccc1)N1C[C@H](Cc2ccc(O)cc2)N(CCc2ccccc2)C(=O)C1=O | -0.6 | -0.3%

The results go on.
SMILES | TRPML1 ag | ClpP mod
COCCN1C(=O)CCC1(C)C(=O)NC1CCCCC1 (stereo not given) | -0.4 | -2.0%
CCCC[C@@H]1CC2=C(C(=O)OC(C)(C)O2)[C@@H](c2ccc(F)cc2)O1 | -0.9 | 0.7%
O=[N+]([O-])c1cccc(S(=O)(=O)N2CCN(c3nc(-c4ccccc4)nc4ccccc34)CC2)c1 | -0.6 | 2.9%
C[N+](C)(C)CCNC(=O)c1c[nH]c2ccccc12 | -0.3 | 3.2%
O=Cc1ccc(-c2c(-c3ccccc3)oc3c2C(OCCCCO)CCC3)o1 (stereo not given) | -0.8 | -25%
OC(c1ccccc1)c1ncc(-c2ccccc2Cl)[nH]1 (stereo not given) | -0.9 | -0.3%
CCCCCCn1cc(CN2CC(N3CCN(C4CCN(C)CC4)CC3)CS2(=O)=O)nn1 (stereo not given) | 0.0 | -3.6%
COc1ccc(C(=O)N2CCCC2(C)C(=O)O)cc1C(F)(F)F (stereo not given) | -0.7 | -1.0%
CN(C)c1ccc(/C=C/c2cc[n+](C)c3ccc4ccccc4c23)cc1 | -1.2 | 1.0%
COc1ccccc1-c1cnc(C(O)c2cc(C)c(OC)c(C)c2)[nH]1 (stereo not given) | -0.9 | -5.7%
Cc1cccc(C)c1-n1nnnc1C(c1ccnc2ccccc12)N1CCCN(C(=O)OC(C)(C)C)CC1 (stereo not given) | -0.4 | 1.0%
N#Cc1cc2cc(Cl)ccc2[nH]c1=O | 0.0 | 5.0%
Cc1ccc(F)c(S(=O)(=O)NC(=O)C2(C)CCN2C(=O)c2ccco2)c1 (stereo not given) | -0.5 | 2.0%
Nc1cccc2[nH]cnc12 | -0.2 | -26%
Cc1ccccc1NC(=O)Nc1nc(C(N)Cc2ccccc2)cs1 (stereo not given) | 1.0 | -0.3%
Cc1noc(C)c1-c1ccc(C(=O)NCc2cccc(Cl)c2)c2occc12 | -0.6 | -19%
CC(=O)Nc1cc(-c2cccc(NS(C)(=O)=O)c2)cn2c(-c3ccccc3)cnc12 | -0.6 | -28%
COc1ccc(C(O)c2nc(-c3cncnc3)cs2)cc1 (stereo not given) | -0.7 | -2.0%
CCNC(=O)C1CCCN(C(=O)c2cc(OC)c(OC)c(OC)c2)CC1 (stereo not given) | -0.3 | -2.6%
COc1ccc(/C=C/C(=O)c2cc(C(=O)/C=C/c3ccc(OC)cc3)c(O)cc2O)cc1 | -0.6 | -2.1%
CCc1cccc2c(C(O)(c3c[nH]c4c(CC)cccc34)c3c[nH]c4c(CC)cccc34)c[nH]c12 | 0.3 | -3.0%
Cc1cc2nc(-c3ccccc3)c(CC3CCCCC3)n2c(C)c1Br | -0.1 | -3.2%
CN1CCCc2cc(/C=C/c3ccnc4ccccc34)ccc21 | 52* | 0.1%
Nc1cc(=O)[nH]c(=S)[nH]1 | -0.2 | 0.2%
N#Cc1cccc(NC(=O)c2cc(C3CCCCN3C(=O)c3ccc4c(c3)CCO4)on2)c1 (stereo not given) | -0.4 | 0.7%
CCCc1nc2ccc(C)cn2c1Cc1ccccc1C(F)(F)F | 1.5 | 5.7%
CC1(C(=O)NS(=O)(=O)c2cccc(F)c2)CCN1C(=O)C1(c2ccc(Cl)cc2)CCC1 (stereo not given) | -0.4 | 2.2%
CC1(C(=O)NS(=O)(=O)c2cccc(Cl)c2)CCN1C(=O)C1CCCCC1 (stereo not given) | 0.1 | 1.5%
COc1ccc(C(O)c2nc(-c3cccc4cccnc34)cs2)cc1 (stereo not given) | -0.2 | ?
O=c1oc2cc(O)ccc2cc1-c1nc2ccccc2o1 | 99* | 5.0%
O=c1[nH]c(=S)c2[nH]cnc2[nH]1 | 0.1 | ?
CCCCCCN1CCN(C2CN(Cc3cn(Cc4cc(C)cc(C)c4)nn3)S(=O)(=O)C2)CC1 (stereo not given) | -0.7 | -2.8%
CCS(=O)(=O)NC(=O)C1(C)CCN1C(=O)Cc1ccc(Cl)cc1Cl (stereo not given) | -0.3 | -0.3%
COCCNC(=O)C1CCCN(C(=O)COc2ccc(Cl)cc2Cl)CC1 (stereo not given) | -0.9 | 1.5%
CCOC(=O)C1(C)CCN1C(=O)c1ccc(C(F)(F)F)cc1 (stereo not given) | -0.6 | -2.0%
CCc1nc2ccc(C(=O)NCCCN3CCCC3=O)cn2c1N(C)C(=O)C1CCCCC1 | -1.0 | -4.2%
CCCCN1CC(N2CCN(Cc3ccccc3)CC2)CS1(=O)=O (stereo not given) | -0.5 | 2.6%
COc1ccc(-c2cc(NC(C)=O)c3ncc(-c4ccccc4)n3c2)c(OC)c1 | -0.8 | 4.8%
CN1OC[C@@H]2CN(S(=O)(=O)c3ccccc3)[C@H](c3ccc(-n4ccnc4)cc3)C[C@@H]21 | -0.4 | 2.6%
CCOC(=O)[C@]12CCCC=C1N(Cc1ccc3c(c1)OCO3)C(=O)[C@H](CC(=O)NCc1cccc3ccccc13)C2 | -0.2 | -4.9%
O=C1O/C(=C\c2ccc(O)cc2)C(O)=C1c1ccc(O)cc1 | -0.4 | -2.3%
CN1CCCC(C)(C(=O)Nc2ccc3scnc3c2)C1 (stereo not given) | -0.6 | -0.5%
CC(C)Nc1ncnc2c1ncn2[C@H]1CN(Cc2ccc(F)cc2)C[C@@H](CO)O1 | -0.3 | 0.9%
CCOc1ccc(NC(=O)CSc2nnc3c(n2)[nH]c2ccc(S(=O)(=O)N(C)C)cc23)cc1 | -0.4 | -2.2%
CN(C)Cc1ncccc1Oc1nc2cc(-c3cccc(Cl)c3)sc2c(=O)n1C | -0.2 | -15%
Cc1cccc(C)c1Nc1cn[nH]c1 | -0.4 | -0.5%
CN1CCN(c2ncnc3c2ncn3[C@H]2CN(C)C[C@@H](CO)O2)CC1 | -0.4 | 1.2%
O=C(Nc1nnc([C@H]2C[C@H](O)[C@@H](CO)O2)s1)C(c1ccccc1)c1ccccc1 | -0.2 | -5.9%
CC[C@@H]1Cc2[nH][nH]c(=O)c2[C@H](CC(C)C)O1 | -0.6 | -0.7%
Cc1c(C(=O)NCc2ccc(Cl)c(Cl)c2)sc(=O)n1Cc1ccccc1F | 0.7 | -1.5%
Cc1ccc2oc(-c3cccc(NC(=O)COc4ccc(Cl)cc4)c3C)nc2c1 | -0.3 | 4.1%
CC(C)CNC(=O)C1(C)CCCCCN1C(=O)c1cc2ccccc2s1 (stereo not given) | -1.0 | -0.7%
CCc1nc2c(OCC=C(C)C)cccn2c1N(C)C(=O)c1ccccc1F | -1.1 | 0.8%
CCCc1c(-c2cccc(Cl)c2)ncn1CCc1ccccc1OC | 3.9 | 0.4%
O=S1(=O)CCOC[C@H](c2ccccc2)N1Cc1ccc(Cl)cc1Cl | 0.0 | -1.3%
CSCCNC(=O)C1(C)CCN1C(=O)c1sccc1C (stereo not given) | -0.5 | 0.5%
COc1ccccc1C1NC(c2ccc3c(c2)OCO3)=CC(c2cc(Br)ccc2O)N1 (stereo not given) | 0.4 | -16%
COC(=O)[C@@]1(Sc2ccc(C)cc2)CC(=O)N(C(=O)/C=C/c2ccccc2)[C@@H]1c1ccccc1 | -0.2 | 0.0%
CCc1nc2ccc(C(=O)N3CCN(S(=O)(=O)CC)CC3)cn2c1N(C)Cc1cccs1 | -0.3 | -1.2%
COc1ccc(Cn2cc(CN3CCc4onc(-c5ccccc5OC)c4C3=O)nn2)cc1 | -0.3 | 2.0%
Continued.
SMILES | TRPML1 ag | ClpP mod
OC(c1ccccc1)c1nc(-c2ccccc2)cs1 (stereo not given) | -0.7 | -2.0%
CCCCc1c(-c2ccc(F)cc2F)ncn1CCc1ccccc1OC | 0.4 | -0.7%
CCNC(=O)C1(C)CCCN(C(=O)c2cc3ccccc3s2)C1 (stereo not given) | -0.6 | -0.8%
NC(CCc1ccccc1)c1csc(Nc2ccc(C(=O)NCCCO)cn2)n1 (stereo not given) | -0.1 | -13%
COc1ccc(C=C(C(=O)c2ccccc2)c2ccccc2)cc1 | 1.2 | -0.2%
CSc1ccc(/C=C/c2ccnc3ccccc23)cc1 | -0.6 | -0.6%
COc1ccc(-c2cc(NC=O)c3ncc(-c4cccc(C(C)=O)c4)n3c2)cc1 | -0.5 | -4.7%
CC(=O)Nc1ccc(CN(C)c2c(C)nc3ccc(C(=O)NCCc4ccccn4)cn23)cc1 | -0.3 | -7.3%
COc1ccc(CNC(=O)c2cccc3c(-c4cnn(C)c4)coc23)cc1OC | -0.5 | -6.1%
C[C@H]1COc2cc(N3CCC[C@H]3CO)ccc2S(=O)(=O)N1 | -0.3 | -0.5%
Cc1ccc(S(=O)(=O)N2CCN(c3nc(-c4cnccn4)nc4ccccc34)CC2)cc1 | -0.8 | -3.2%
O=C1c2ccccc2C(c2nnnn2-c2ccc3c(c2)OCCO3)N1Cc1ccco1 (stereo not given) | 0.1 | -0.6%
COc1cc(CNC(=O)c2cc(-c3cc(C)cc(F)c3)n[nH]2)cc(OC)c1 | -0.5 | 1.1%
CC(=O)Nc1ccc(NC(=O)c2cc(-c3ccc(F)cc3C)n[nH]2)cc1 | -0.3 | -7.1%

Bioassay records from PubChem.
